Compound activity: PubChem, several laboratories
Yeast UUG start – yeast start codon fidelity modulation; AID 602363; 350,000 tested, 0.13% active; activity score, % at 18.7 µM; S. cerevisiae UUG-firefly luciferase reporter, luminescence/redox ratio;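 active means replicate mean at a twofold rise or more, about +100% in these data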;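 further: firefly luciferase made from a UUG start codon reports start codon fidelity; reporter light over untreated wells divided by growth signal over untreated wells; some hits fall short of that in this replicate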
Rce1 inhib – yeast Ras-converting enzyme inhibition; yeast membranes, quenched prenylated peptide cleavage fluorescence; calls only; 290,000 tested, 0.27% active;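 active means fall in fluorescence gain of 50% or more versus controls, with final raw signal at or below 3038400; inconclusive means same 50% fall but final raw signal above 3038400; inactive means fall in fluorescence gain under 50%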;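 further: plate controls were neutral control wells for no effect and wells lacking membranes for full effect; tested at 10 µM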
Env fusion inh – blocks HIV Env-driven cell-cell fusion. HeLa-JRFL Env/CEM21 cell fusion, luciferase. 360,000 tested, 1.1% active. inhibition, % at 12.3 µM. AID 651610;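 active means mean replicate inhibition score of at least 50 and every replicate individually at or above 50; inconclusive means only one of the two criteria met; inactive means mean below 50 and not all replicates reaching 50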;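 further: 0% = plate neutral controls and 100% = maraviroc near 300 nM; one replicate is shown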
PABP polyA inh – blocks human PABP binding to poly(A) RNA; P11940; fluorescence polarization; inhibition, % at 35 µM; 290,000 tested, 1% active;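 active means 50% or more with normal probe brightness, or confirmed in later tests; inconclusive means above 50% with abnormal brightness, or retests that disagree; inactive means below 50% or failed in later tests; about a fifth of its hits are not listed in these tables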;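 further: calls also rest on retests at 20 µM and on dose response follow-up; controls were probe without protein and protein plus probe with vehicle; some compounds called inactive have numbers as strong as hits; many hits fall short of the cut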
Target sequence (P11940 whole entry, looked up): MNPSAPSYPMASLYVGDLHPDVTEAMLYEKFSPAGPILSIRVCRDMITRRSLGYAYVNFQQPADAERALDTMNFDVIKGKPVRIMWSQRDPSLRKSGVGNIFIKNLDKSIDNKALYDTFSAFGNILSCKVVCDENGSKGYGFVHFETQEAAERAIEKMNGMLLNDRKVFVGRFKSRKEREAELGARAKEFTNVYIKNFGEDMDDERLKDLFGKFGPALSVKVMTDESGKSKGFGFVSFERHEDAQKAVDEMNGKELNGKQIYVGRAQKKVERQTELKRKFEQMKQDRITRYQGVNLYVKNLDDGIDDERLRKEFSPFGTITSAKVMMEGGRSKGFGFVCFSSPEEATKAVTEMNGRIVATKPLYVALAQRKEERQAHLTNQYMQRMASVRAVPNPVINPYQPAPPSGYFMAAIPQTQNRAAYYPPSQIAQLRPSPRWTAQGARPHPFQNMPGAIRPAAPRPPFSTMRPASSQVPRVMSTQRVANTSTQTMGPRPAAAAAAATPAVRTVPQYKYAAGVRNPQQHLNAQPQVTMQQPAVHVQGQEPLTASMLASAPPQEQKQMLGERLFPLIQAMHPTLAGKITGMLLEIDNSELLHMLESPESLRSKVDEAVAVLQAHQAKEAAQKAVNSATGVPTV
CSC inhib – cancer stem cell inhibition; cancer stem cell-like cells viability, luminescence; inhibition, % at 7.5 µM; 300,000 tested, 1.1% active; AID 2717;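 active means mean at 75% or more and at least half the replicates too; inconclusive means mean and replicates disagree; tested in HMLE shEcad cells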;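 further: 0% = median of negative and 100% = median of positive control wells; the first replicate is given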
eIF4H inh – inhibitors of RNA binding by human eIF4H; eIF4H fluorescence polarization binding assay; Q15056; 290,000 tested, 0.94% active; inhibition, % at 35 µM; AID 2012;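 active means 50% or more with normal probe brightness, or confirmed in later tests; inconclusive means above 50% with abnormal brightness, or retests that disagree; inactive means below 50% or failed in later tests; about a fifth of its hits are not listed in these tables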;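 further: calls also rest on retests at 20 µM and on dose response follow-up; 0% = protein and probe with vehicle and 100% = probe without protein; strong numbers were not always called active; many hits fall short of the cut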
MT1-MMP act inh – inhibitors of human MT1-MMP activation; HT1080 RFP-PRO-GFP cells, GFP/RFP ratio fluorescence, overnight; percent of plate control window, DMSO zero; GFP/RFP ratio change, % at 20 µM; 360,000 tested, 0.061% active; P50281; AID 651647;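 active means GFP/RFP ratio change of at least 30% with cell ATP level not reduced by more than half and red fluorescence within 50% of control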; further: strong numbers were not always called active
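Assay system: HT1080 RFP-PRO-GFP cells. Benchmarks: DMSO vehicle wells and RFP-L50D-GFP reporter cell wells. Times: overnight cell settling, then overnight compound exposure, 37 °C, 5% CO2. Compound: 20 µM single dose, 1% DMSO. Read-out basis: GFP/RFP fluorescence ratio.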
eIF4H inh retest – recorded beside eIF4H inh, whose call it bears; inhibition, %; compound at 20 µM; confirmation average;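 mean of two retest wells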
PABP polyA inh retest – further read-out of PABP polyA inh, marked with its call; inhibition, %; compound at 20 µM; confirmation repeats;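 mean of two retest wells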
MT1-MMP act inh RFP – also measured in MT1-MMP act inh; calls as there; RFP signal change, %; measured here: RFP expression control read;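 0 = vehicle wells; hits needed this value within 50% of zero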
Active calls of the source: *; i = inactive; u = inconclusive; x = not tested or not shown. This is a subset, so the mix of outcomes need not match the whole.

SMILES	Yeast UUG start	Rce1 inhib	Env fusion inh	PABP polyA inh	CSC inhib	eIF4H inh	MT1-MMP act inh	MT1-MMP act inh RFP	others
Cn1c(=O)c2c(ncn2CC(=O)OCC(=O)c2ccc(F)c(F)c2)n(C)c1=O	-12	i	-17	0	-6	-19	-1	7
CCC(=O)NS(=O)(=O)c1cccnc1Nc1ccc(Cl)cc1	-19	i	x	4	-10	-1	4	8
COc1ccc(NS(=O)(=O)c2cc(NC(=O)c3ccccn3)ccc2OC)cc1Br	-1	x	x	x	-17	x	6	-6
Cc1ccc(-c2nn(CC(=O)NCC3CCCO3)c(=O)c3ccccc23)cc1 (stereo unspecified)	-14	i	x	-2	-17	-7	-5	0
CCOC(=O)C1(Cc2cccc(F)c2)CCN(C(=O)c2cnccn2)CC1	8	i	7	7	-2	-5	4	7
Cc1c(CCO)c(=O)[nH]n1S(=O)(=O)c1ccc(F)cc1	-15	i	4	-4	-4	4	-2	-3
O=C(Cc1cccc(NC(=O)C2CCCN(C(=O)CCc3ccccc3)C2)c1)Nc1cccc(C(=O)N2CCCC2)c1 (stereo unspecified)	-2	x	-7	x	-5	x	6	-10
CCOc1ccccc1CN1CCNC(=O)C1CC(=O)NC1CCCCC1 (stereo unspecified)	-9	i	3	40	14	-1	1	2
COc1ccc(C(=O)Nc2ccc(S(=O)(=O)N3CCOCC3)cc2)cc1	-2	i	10	x	-1	x	2	-4
COc1ccccc1NS(=O)(=O)c1cc(NC(=S)NCC2CCCO2)ccc1C (stereo unspecified)	x	i	-7	-5	-14	3	-6	-12
COC(=O)c1ccccc1NC(=O)c1ccc(COc2ccc3c(c2)CCC3)cc1	-20	i	-55	0	x	2	0	4
Cc1cc2[nH]ncc2cc1NC(=S)NC(=O)c1ccccc1	x	i	-49	4	4	-4	-2	-11
CC(C)/C(=N\NS(=O)(=O)c1ccc(Br)cc1)c1cccs1	x	i	7	13	8	-6	1	3
COc1ccc(/C=N/N2CCN(c3ccc(Cl)cc3)CC2)cc1	10	i	14	-9	1	-6	2	-2
CCSc1cc(N2CCOCC2)nc(-c2ccc(Cl)cc2)n1	0	i	x	0	x	3	-5	0
Cc1cc(C(=O)NCc2cccs2)nn1C	x	i	4	4	-14	8	0	-1
O=C(NCc1ccccc1)N1CCOCC1	x	i	12	9	-11	-5	-3	3
CCc1ccc(NC(=O)C2CCCN(S(=O)(=O)c3cccs3)C2)cc1 (stereo unspecified)	-1	x	-1	10	16	7	-1	-5
c1ccc(OCCSc2nc3ccccc3o2)cc1	-13	i	x	-4	-6	-12	2	-2
C=C(C)CSc1nnc([C@H](CCSC)NC(=O)OC(C)(C)C)o1	-9	i	x	-2	-12	0	3	0
CSc1nc2oc3c(c2c2nncn12)CC(C)(C)SC3	-29	i	x	25	-8	32	-6	1
COc1cc([N+](=O)[O-])ccc1NC(=O)NCC1CCN(Cc2ccc(Cl)cc2)CC1	-4	i	26	-2	4	-14	3	2
CCn1c(=NC(=O)CSC(C)=O)sc2cc(OC)ccc21	-12	i	x	0	-22	6	-1	2
CN(C)c1ccc(N2C(=NC(=O)CCC3CCCC3)SC3CS(=O)(=O)CC32)cc1 (stereo unspecified)	-3	i	-2	-4	-11	-14	-3	4
CC(O)c1nc2ccccc2n1CC(=O)Nc1ccc2c(c1)OCCO2 (stereo unspecified)	x	i	-16	11	2	3	1	2
Cc1cc(N2CCN(c3ccccc3)CC2)nc(-c2ccccc2O)n1	-3	i	0	-10	28	-1	1	4
CC(CCc1ccc(O)cc1)NC1c2ccccc2-c2ccccc21 (stereo unspecified)	-6	i	16	-3	11	-9	0	-1
COc1ccc(S(=O)(=O)N(CC(=O)NCc2ccco2)c2ccc(C)cc2)cc1OC	-9	x	-2	18	-3	-2	-1	0
COC(=O)c1nc2ccc(N3CCOCC3)cc2c(C)c1C(=O)OC	5	i	-23	16	-3	27	-1	-1
O=C(NC(=S)Nc1ccccc1N1CCCC1)c1ccccc1[N+](=O)[O-]	x	i	1	-6	10	3	5	3
CCCCC(=O)Nc1ccc(C(=O)NN2C(=O)c3ccccc3C2=O)cc1	-6	i	x	-3	-1	5	2	3
CC(C)CCn1c(SCC(=O)NC2CCS(=O)(=O)C2)nc2cc(Cl)ccc2c1=O (stereo unspecified)	-11	i	9	x	-5	x	-1	-1
Cc1nc(NC(=O)COC(=O)CCc2ccccc2)c(Cl)cc1Cl	-8	x	x	x	-10	x	1	0
CC(C)Cn1c2nc3ccccc3nc2c2c(=O)n(CCN3CCOCC3)cnc21	-9	i	x	5	-5	5	5	0
Cc1ccc2nc(C(C)(C)C)c(Cc3cccc(F)c3)n2c1	30	x	-8	x	x	x	2	-3
Cc1c(NS(=O)(=O)N2CCCCC2)c(=O)n(-c2ccccc2)n1C	-10	i	-51	-2	x	-2	-11	-3
OC12CCCCC1C(c1ccc3c(c1)OCO3)N(Cc1ccccc1F)CC2 (stereo unspecified)	-17	i	0	-6	9	-2	4	5
Cc1cc(NS(=O)(=O)c2ccc(NC(=O)CCCOc3cccc(C)c3C)cc2)no1	-9	i	-4	3	12	1	3	1
O=C(O)CN1CCN(Cc2ccc(Cl)cc2)C1=O	x	i	-19	-8	-8	-14	2	6
C=CCN1/C(=C(\C#N)C2=NS(=O)(=O)c3ccccc32)N(C)c2ccccc21	-19	i	12	-9	-5	-5	-8	-5
Cc1cc(NC(=O)c2ccc(-c3ccc(F)c(Cl)c3)o2)no1	x	i	-16	-4	9	0	6	4
COc1cc(NS(=O)(=O)c2ccc(Nc3nc(-c4ccccn4)cs3)cc2)nc(OC)n1	x	i	-19	28	-14	13	0	-2
CCOC(=O)N1CCN(S(=O)(=O)c2ccc(C(=O)Nc3sc4c(c3C(N)=O)CCN(CC)C4)cc2)CC1	-2	i	-5	-10	-12	-13	-3	6
CCOc1ccccc1OCCCC(=O)N1CCN(S(=O)(=O)c2cc(F)ccc2F)CC1	-3	x	8	x	x	x	-3	-5
Oc1ccc(/C=N/NC(=S)NCC2CCCO2)cc1 (stereo unspecified)	-31	i	x	4	-3	39	1	1
COc1cc(Cn2c3ccc(NC(=O)CCc4ccc(O)cc4)cc3c(=O)n2C)ccc1F	-6	x	6	x	x	x	1	-5
CCCCN(C(=O)/C=C/c1ccco1)c1c(N)n(CCC)c(=O)[nH]c1=O	20	i	6	14	-8	1	1	3
Cc1cc(NCCc2ccccc2F)n2ncnc2n1	x	i	-53	-6	-14	-6	-1	-2
COc1ccccc1-c1cccc2nccn12	-11	x	-3	x	x	x	0	-4
NNC(=O)C12CC3CC(C1)CC(n1ncnn1)(C3)C2	x	i	-14	-7	-17	-5	5	5

Next section:
SMILES	Yeast UUG start	Rce1 inhib	Env fusion inh	PABP polyA inh	CSC inhib	eIF4H inh	MT1-MMP act inh	MT1-MMP act inh RFP	others
COc1ccccc1N(O)C1CC(=O)N(c2ccc(F)cc2)C1=O (stereo unspecified)	-2	i	-51	-8	-4	-3	-7	-7
CCOC(=O)c1nn(-c2ccccc2C)c2nc(CC(C)C)c(C#N)c(=O)n12	-15	i	-63	-12	-4	14	4	4
C=CCn1c(SCC(=C)C)nc2c1c(=O)[nH]c(=O)n2C	-11	i	-57	4	-4	-9	4	4
CC(=O)c1ccc(N2CCN(C(=O)C3CCCN(c4ncnc5c4nc4n5CCCCC4)C3)CC2)cc1 (stereo unspecified)	-1	i	-4	5	-1	-4	3	-7
O=C(CSc1nccn(-c2ccc(Br)cc2)c1=O)NC1CCCC1	-20	i	x	x	15	x	1	-1
CC(=O)c1ccc(NC(=O)NC2CCCCCCC2)cc1	-2	i	-65	5	-14	-7	2	3
CC(=O)NC12CC3CC(C1)CC(C(=O)N1CCN(S(=O)(=O)c4cccc([N+](=O)[O-])c4)CC1)(C3)C2	-7	x	9	x	x	x	-3	-1
COc1cc(NC(=S)N2CCN(S(=O)(=O)c3ccccc3)CC2)cc(OC)c1	-8	i	16	-4	-3	2	1	2
COc1ccc(C2C(=O)c3ccccc3C2=O)cc1	-3	i	-47	7	11	-2	1	3
CCOc1ccc(C(=O)C(C)OC(=O)Cn2[nH]c(=O)c3ccccc3c2=O)cc1 (stereo unspecified)	4	x	-33	-6	5	3	-1	0
N#Cc1c(SCc2ccccc2)nc(N2CCOCC2)c2c1CCCC2	-12	x	x	-4	21	-7	-12	-13
COc1ccc(NC(=S)NCCCn2ccnc2)cc1	-15	i	x	x	-11	x	0	3
Cc1c(C(=O)NC2CCCC2)oc2ccccc12	-24	x	-21	x	-13	x	-1	-3
CC1C=CC(C)C(C(=O)c2ccccc2)C1C(=O)c1ccccc1 (stereo unspecified)	-2	x	15	x	x	x	-4	-4
CCn1c(=O)n(CC)c2cc(NS(=O)(=O)c3ccccc3)ccc21	-13	i	5	6	-2	-2	10	6
COCCN1Cc2cccc(C(=O)NCC3CCN(CC(C)C)C3)c2C1=O (stereo unspecified)	x	i	-8	-16	4	0	-6	0
C=CCNc1nc(C(=O)OCC(=O)NCc2cccc(Cl)c2)cs1	-15	x	8	x	-4	x	-2	5
CC(=O)Nc1ccc(S(=O)(=O)Nc2nnc(C)s2)cc1	-6	x	-8	x	x	x	3	9
O=S(=O)(Nc1cccc(-c2nc3cccnc3s2)c1)c1ccc2c(c1)CCCC2	-7	i	5	6	38	6	1	2
Cc1cccc(/C=C/c2onc(C)c2S(=O)(=O)N2CCC(C(=O)N3CCCCC3)CC2)c1	-15	i	x	x	-14	x	-8	-9
Cc1ccc(-n2[nH]c(C)c(/C=N/Nc3ccc([N+](=O)[O-])cc3[N+](=O)[O-])c2=O)cc1	x	i	x	-2	1	-6	22	-21
COc1cc2c(cc1OC)C(c1ccc(-c3ccc(Cl)c(Cl)c3)o1)=NCC2	-13	i	83*	50	u	61	-10	-10	eIF4H inh retest=1;PABP polyA inh retest=0
COC(=O)c1nn(C23CC4CC(CC(C4)C2)C3)c2c1C(=O)N(c1ccc(Br)cc1)C2=O	-6	i	x	2	-12	-8	-1	2
COc1ccc(S(=O)(=O)N(C)C)cc1NC(=O)Cc1cccs1	x	i	-42	-15	-15	5	4	-1
CCN(CC)C(=O)C1CCCN(C(=O)c2cc(COc3ccc4ncccc4c3)on2)C1 (stereo unspecified)	1	i	14	-4	-14	2	-2	-22
C[C@@H](CN1CCC[C@H]1CN1C(N)=NC[C@@H]1Cc1ccccc1)N1C[C@@H](Cc2ccccc2)N(CCc2ccc(Cl)c(Cl)c2)C1=N	-15	x	x	x	2	x	5	-1
CC(C)c1onc(C(=O)Nc2ccc3c(c2)OCO3)c1[N+](=O)[O-]	-1	i	x	16	5	-1	8	5
Cc1ccc(C(=O)N2CCCC(C(=O)c3cc(F)ccc3F)C2)s1 (stereo unspecified)	x	i	12	-3	1	-13	0	4
CC(C)(C)NC(=O)C1N(c2cccnc2)C(=O)C2C(C(=O)Nc3ccccc3F)C3(C)C=CC21O3 (stereo unspecified)	-19	i	-39	2	-16	-10	4	5
CCN(C[C@H]1N[C@@](CC)(C(=O)OC)[C@H]2C(=O)N(C)C(=O)[C@@H]12)S(=O)(=O)c1ccc(-c2ccccc2)cc1	-1	x	-20	x	x	x	1	0
CC1=NN(C(N)=S)C(=O)C1N=Nc1ccc(F)cc1 (stereo unspecified)	-33	i	-17	-5	x	-3	1	-8
